From PubChem BioAssay
VDR inhibitor – Inhibitors of the vitamin D receptor (VDR): qHTS | Vitamin D3 receptor (Homo sapiens), P11473 | VDR-SRC2-3 peptide fluorescence polarization, 2 h | Potency, µM, without a hit: max response, negative = inhibition, actives largely listed as inhibitors | 400,000 compounds, 0.93% hits; active means well fitted inhibition curve with a large enough effect; inconclusive means small, poorly fitted or top-dose-only effect, or another doubt; inactive means no such curve, though single readings can be large or run the other way; further: series mostly up to about 120 µM
Target sequence (P11473 whole entry, looked up): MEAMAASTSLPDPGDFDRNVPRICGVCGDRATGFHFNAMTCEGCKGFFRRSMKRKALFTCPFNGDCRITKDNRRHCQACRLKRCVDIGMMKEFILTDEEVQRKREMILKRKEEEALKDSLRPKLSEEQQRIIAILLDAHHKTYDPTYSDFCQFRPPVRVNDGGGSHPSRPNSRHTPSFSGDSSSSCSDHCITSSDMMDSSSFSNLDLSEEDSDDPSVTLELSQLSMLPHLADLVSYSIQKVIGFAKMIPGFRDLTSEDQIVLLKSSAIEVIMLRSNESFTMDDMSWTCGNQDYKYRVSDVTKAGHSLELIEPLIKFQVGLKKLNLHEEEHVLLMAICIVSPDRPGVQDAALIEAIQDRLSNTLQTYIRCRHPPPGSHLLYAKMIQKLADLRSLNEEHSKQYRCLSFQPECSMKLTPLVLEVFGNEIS
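Fluorescence polarization assay of small-molecule disruption of VDR binding to coregulator peptide SRC2-3. Compounds and controls pin-transferred, then read after 2 h incubation at ambient room temperature.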
* = called active by the depositor; ? = inconclusive. On the % scale 0 is the no-effect control and ±100 the full control effect; potency means the concentration at half of the fitted maximal effect. Some of the compounds tested; count on the stated rates, not on these rows.

VDR inhibitor,smiles
8%,CCn1c(SCC(=O)NCc2ccccc2)nnc1-c1c[nH]c2ccccc12
-13%,COc1ccc(OCCCC(=O)Nc2ncn[nH]2)cc1
?,COC/C=C/C1=CC2=CC(=O)C(C)(OC(=O)C3CCCC3)C(=O)C2=CO1 (configuration not stated)
-1%,O=C(NCCN1CCOCC1)c1ccc2c(c1)N(Cc1ccccc1)C(=O)CS2
-1%,Cc1ccc(N(Cc2cc3ccccc3[nH]c2=O)C(=O)c2cccs2)cc1C
-9%,O=C(c1ccc(Cl)c(S(=O)(=O)N2CCCCC2)c1)N1CCCC1
6%,CCOc1ccc(CCNC(=O)COC(=O)C2=NNC(=O)CC2)cc1OCC
-26%,c1ccc(CC(Cc2ccccc2)c2ccccn2)cc1
-20%,CCN=c1scc(-c2ccco2)n1/N=C/c1ccc(OC)c(O)c1
-3%,O=c1c2ccccc2nc(SCc2nnc(-c3ccccc3Br)o2)n1Cc1ccco1
-19%,CCOC(=O)c1cccc(P(=O)(C(C)(C)C)C(C)(C)C)c1
-19%,CCSc1oc(-c2cccs2)nc1S(=O)(=O)c1ccccc1
23%,CCc1ccc(Nc2nnc(SCC(=O)NC(=O)c3cccn3C)s2)cc1
-1%,CCOC(=O)c1cnc2ccc(Br)cc2c1NCC(C)O (configuration not stated)
12%,C/C(=N\NC(=O)C1CCCC1)c1ccc(Cl)cc1
-2%,CC1CCCN1CC#CC(O)(c1ccccc1)c1ccccc1 (configuration not stated)
-2%,FC(F)Oc1ccc(C2=Nn3c(nnc3-c3ccccc3Cl)SC2)cc1OCC1CC1
-3%,COc1ccc(S(=O)(=O)CCC(=O)N2CCN(c3ccc(F)cc3)CC2)cc1
-17%,O=C(Cc1cccc([N+](=O)[O-])c1)Nc1cccc(C(=O)N2CCOCC2)c1
24%,CCCc1nnc(NC(=O)CCS(=O)(=O)Cc2ccccc2)s1
21%,COC(=O)c1cccc(NC(N)=S)c1
-5%,Cn1ncc2c(NCCc3ccccc3)nc(Cl)nc21
-8%,CC(Oc1ccccc1)C(=O)Nc1nnc(S(=O)(=O)Nc2ccccc2)s1 (configuration not stated)
-13%,COc1ccccc1CNC(=O)[C@H](NC(=O)C1CCN(C(=O)[C@@H](N)CCSC)CC1)C(C)C
20%,NNC(=S)NCc1ccccc1
-7%,O=C(NCCCn1ccnc1)c1cc(Cl)cc(Cl)c1
-7%,O=C(NCCN1CCOCC1)c1cc(-c2cccc(Cl)c2)on1
8%,CCc1ccc(C2NC(=S)NC3=C2C(=O)N(c2ccccc2OC)C(c2ccc(CC)cc2)N3)cc1 (configuration not stated)
1%,OCCN(Cc1ccccc1)Cc1ccc(C(F)(F)F)cc1
-2%,COc1ccc(N)cc1NC(=O)CN1CCCC1
11%,Cn1c(=O)c2c(nc(SCCCC#N)n2Cc2c(F)cccc2Cl)n(C)c1=O
1%,Cc1ccc(-c2noc(-c3ccc(N4CCOCC4)c([N+](=O)[O-])c3)n2)cc1
-16%,CNc1ccccc1C(=O)OCC(=O)Nc1ccc2c(c1)OCO2
16%,CCOC(=O)c1cccc(Nc2ccc3cc(S(=O)(=O)N4CCCCC4)ccc3n2)c1
6%,Cc1ccc(C(=O)CN2/C(=C(\O)c3ccccc3)C(=O)c3ccccc3S2(=O)=O)c(C)c1
1%,CCOc1ccc(NS(=O)(=O)c2ccc3c(c2)CCCN3C(=O)C2CCC2)cc1
4%,CC(=O)Nc1ccc(OCc2ccccc2)cc1[N+](=O)[O-]
-7%,CCOC(=O)c1cnc2ccccc2c1Nc1ccc2c(c1)OCCO2
0%,COc1ccc(C(=O)Nc2cc(OC)ccc2OC)cc1
0%,O=[N+]([O-])c1ccccc1N/N=C1\CC2CC=CC12 (configuration not stated)
-15%,COc1cccc(C(c2nnnn2CC2CCCO2)N2CCN(C(=O)c3ccco3)CC2)c1OC (configuration not stated)
-4%,COc1ccc(N2C(=O)NC(NC(=O)c3ccncc3)(C(F)(F)F)C2=O)cc1 (configuration not stated)
-3%,Cc1ccc(CC(=O)NC2CCCc3ccccc32)cc1C (configuration not stated)
-19%,Cc1ccc2oc(-c3cc(NC(=O)c4oc5ccccc5c4C)ccc3Cl)nc2c1
9%,CN(CC1CCCCO1)C(=O)c1cc(COc2ccc(F)cc2Cl)on1 (configuration not stated)
-19%,O=C(COC(=O)c1cc(=O)[nH]c2ccccc12)NCc1ccc(Cl)cc1
20%,COc1ccc(OCC(=O)N2CCc3c([nH]c4ccccc34)C2c2ccccn2)cc1 (configuration not stated)
22%,CN(CC(=O)Nc1ccccc1Cl)C(=O)C1CSC2(C)CCC(=O)N12 (configuration not stated)
3%,Cc1cc(N2CCN(c3ccccc3F)CC2)nc2cc(O)ccc12
18%,COc1ccc(CNC(=O)CCn2c(C)csc2=O)cc1

Arranged by molar mass (highest first): some entries from above
VDR inhibitor,smiles
8%,CCc1ccc(C2NC(=S)NC3=C2C(=O)N(c2ccccc2OC)C(c2ccc(CC)cc2)N3)cc1 (configuration not stated)
-15%,COc1cccc(C(c2nnnn2CC2CCCO2)N2CCN(C(=O)c3ccco3)CC2)c1OC (configuration not stated)
6%,Cc1ccc(C(=O)CN2/C(=C(\O)c3ccccc3)C(=O)c3ccccc3S2(=O)=O)c(C)c1
16%,CCOC(=O)c1cccc(Nc2ccc3cc(S(=O)(=O)N4CCCCC4)ccc3n2)c1
-19%,Cc1ccc2oc(-c3cc(NC(=O)c4oc5ccccc5c4C)ccc3Cl)nc2c1
1%,CCOc1ccc(NS(=O)(=O)c2ccc3c(c2)CCCN3C(=O)C2CCC2)cc1
9%,CN(CC1CCCCO1)C(=O)c1cc(COc2ccc(F)cc2Cl)on1 (configuration not stated)
-19%,O=C(COC(=O)c1cc(=O)[nH]c2ccccc12)NCc1ccc(Cl)cc1
1%,Cc1ccc(-c2noc(-c3ccc(N4CCOCC4)c([N+](=O)[O-])c3)n2)cc1
-7%,CCOC(=O)c1cnc2ccccc2c1Nc1ccc2c(c1)OCCO2
-7%,O=C(NCCN1CCOCC1)c1cc(-c2cccc(Cl)c2)on1
-16%,CNc1ccccc1C(=O)OCC(=O)Nc1ccc2c(c1)OCO2
18%,COc1ccc(CNC(=O)CCn2c(C)csc2=O)cc1
-7%,O=C(NCCCn1ccnc1)c1cc(Cl)cc(Cl)c1
0%,COc1ccc(C(=O)Nc2cc(OC)ccc2OC)cc1
4%,CC(=O)Nc1ccc(OCc2ccccc2)cc1[N+](=O)[O-]
-2%,COc1ccc(N)cc1NC(=O)CN1CCCC1
0%,O=[N+]([O-])c1ccccc1N/N=C1\CC2CC=CC12 (configuration not stated)

Continuation.
VDR inhibitor,smiles
23%,CCOc1ccc(N(CC(=O)Nc2ccc(OC)cc2)C2=NC3CS(=O)(=O)CC3S2)cc1 (configuration not stated)
6%,C=CCC(NCc1ccccc1)c1ccc(Cl)cc1 (configuration not stated)
13%,O=C(CSc1nncs1)NC(=O)Nc1ccc2c(c1)OCCO2
-1%,COCCCn1c(=O)/c(=C/c2ccccc2OC(F)F)s/c1=C(\C#N)C(=O)NCCOC
13%,O=C(COc1coc(CN2CCc3ccccc32)cc1=O)Nc1cccc(F)c1
-3%,Cc1ccc(S(=O)(=O)c2cn(C)c3cc(N4CCOCC4)c(F)cc3c2=O)cc1
-26%,CCOC(=O)C(=O)Cc1nc(OCc2ccccc2)cc(OCc2ccccc2)n1
-8%,Cc1cc(NC(=O)CSc2nc3c([nH]c4ccccc43)c(=O)n2-c2cccc(Cl)c2)no1
-5%,Cc1onc(-c2c(F)cccc2Cl)c1C(=O)NCCc1ccncc1
-5%,CN(c1ccc(C(=O)Nc2ccc3c(c2)n(C)c(=O)n3C)cc1)S(C)(=O)=O
-10%,CC(C)[C@H](NC(N)=O)C(=O)NNC(=O)COc1cccc(C(F)(F)F)c1
11%,CCOC(=O)c1cnn2c(N)c(C#N)nnc12
-18%,Cc1ccc(C(=O)N/C(=C\c2cccnc2)c2nc3ccccc3[nH]2)cc1
10%,COc1ccc(C2C3C=CCC(c4cccc(/C=C/c5ccccc5)c4)C3C(=O)N2Cc2ccccc2)cc1Cl (configuration not stated)
-7%,Cc1ccc(NC(=O)c2cc(S(=O)(=O)N3CCOCC3)ccc2F)c(C)c1
0%,CCN(CC(=O)Nc1c(F)cccc1F)C(=O)c1ccc2c(c1)S(=O)(=O)N=C1CCCCCN12
7%,O=C(NCCN1CCOCC1)c1ccc(NC(=O)C2COc3ccccc3O2)cc1 (configuration not stated)
8%,Cc1ccccc1CN1CCN(c2ccc(S(=O)(=O)N3CCCC3)cn2)CC1
9%,COC(=O)CCCn1c(C)cc(C(=O)CCl)c1C
-4%,COc1ccc(C(=O)N/N=C2\CCS(=O)(=O)c3ccc(F)cc32)cc1OC
-4%,Fc1ccc(C2c3[nH]c4ccccc4c3CCN2Cc2ccoc2)cc1 (configuration not stated)
-12%,Cc1cc(Cl)nc(-n2nc(C)cc2C)n1
9%,Cc1ccc(CSc2nnc(CC(=O)Nc3ccc(C)cc3)n2C)cc1
6%,CCOC(=O)c1[nH]c(=O)c2ccccc2c1O
14%,O=C(O)C1OCC2(CO1)COC(C(=O)O)OC2 (configuration not stated)
9%,O=C(O)CC(NC(=O)Cc1ccc([N+](=O)[O-])cc1)c1ccc2c(c1)OCO2 (configuration not stated)
6%,Cc1cccc(C(=O)N2CCN=C2SCc2ccc([N+](=O)[O-])cc2)c1
-5%,O=C(CCCn1c(=O)[nH]c2cc(Cl)ccc2c1=O)NCC1CCCO1 (configuration not stated)
-25%,COc1ccc(OCC(=O)N/N=c2\oc3c(OC)cccc3cc2C(N)=O)cc1
0%,Cc1ccc(NC(=O)c2cc(N3C(=O)CCC3=O)ccc2N2CCOCC2)cc1
1%,CNC(=O)c1cc(C(=O)c2ccc(Cl)cc2)c(Br)[nH]1
-4%,CCC(C(=O)NCCc1ccc(OC)c(OC)c1OC)n1nc(C)c2sc3ccccc3c2c1=O (configuration not stated)
3%,O=S(=O)(Nc1ccon1)c1ccc(F)c(F)c1
-1%,CC(OC(=O)Cn1cnc2ccccc2c1=O)C(=O)NCc1ccccc1 (configuration not stated)
-6%,CCc1ccccc1NC(=O)CCC(=O)c1cccs1
-1%,O=C(NCc1cccc(Cl)c1)c1cnc(N2CCOCC2)c2ccccc12
7%,NC(=O)c1cnccc1C=Cc1ccccc1
8%,CC(=O)Nc1ccc(S(=O)(=O)N2CCC(C(=O)NCc3ccncc3)CC2)cc1
0%,Cc1ccc(C(=O)N/C(=C\c2ccc([N+](=O)[O-])cc2)C(=O)NCCc2ccccc2)cc1
14%,CC(C)CCC1=NN(C(=O)c2ccco2)C(O)(C(F)(F)F)C1 (configuration not stated)
-5%,CCC(=O)Nc1cccc(NC(=S)NC(=O)c2cccc(C)c2)c1
-19%,CC1CCCC(C)N1/N=C/c1ccccc1Br (configuration not stated)
1%,COc1ncc2nc(-c3cn(C)c4ccccc34)c(=O)n(CCC#N)c2n1
-15%,Cc1cc(C)c2c(=O)[nH]c(SCC(=O)Nc3ccccc3)nc2n1
-8%,CCOC(=O)c1ccc(NC(=O)Nc2ccc(F)cc2)cc1
?,O=C(NCc1ccccc1)Nc1cccc2ccccc12
3%,COCCn1c(Cc2ccccc2)nnc1SCC(=O)NC(C)C
-5%,CCCCN(C(=O)CSc1nnnn1C)c1c(N)n(Cc2ccccc2)c(=O)[nH]c1=O
27%,Clc1ccsc1-c1ccnc(-n2cccc2)n1
4%,CCn1c(CCCOc2ccc(Cl)cc2Cl)nnc1SCC(=O)Nc1cc(F)ccc1C

The results go on:
VDR inhibitor,smiles
-3%,CCO[C@H]1OC(C(=O)NC2CC2)=C[C@@H](c2ccc3c(c2)OCO3)[C@@H]1CCCO
2%,Clc1ccc(Nc2nc(-c3ccccc3)c3ccccc3n2)c(Cl)c1
-25%,COCCNC(=O)NC(=O)CSc1nc(C)c(C)c(C)n1
13%,CC(C)N1CCN(Cc2cccn2-c2ccccn2)CC1CCO (configuration not stated)
0%,O=C(CCCC1=NS(=O)(=O)c2ccccc2N1)N1CCN(c2ccc([N+](=O)[O-])cc2)CC1
5%,O=S(=O)(c1cccc(S(=O)(=O)N2CCCC2)c1)c1cccc(S(=O)(=O)N2CCCC2)c1
-2%,CCOC(=O)c1ccc(S(=O)(=O)N2CCN(C/C=C/c3ccccc3)CC2)cc1
-12%,O=C(CN1C(=O)COc2ccccc21)N1CCc2ccccc2C1
5%,Cc1oc2cc3oc(=O)c(CCC(=O)NCCc4ccccc4F)c(C)c3cc2c1C
8%,CCN(CC)C(=O)CSc1nc2ccccc2c(=O)n1CCC(=O)NCc1ccc(F)cc1
-21%,O=C(Nc1cccc(Cl)c1)C1CCCN(c2ncnc3c2nc2n3CCCCC2)C1 (configuration not stated)
-8%,C[C@H](NC(=O)c1nc[nH]c1C(=O)NCCCCCN)C(=O)OCc1ccccc1
?,O=C(Nc1ccc(S(=O)(=O)Nc2ncccn2)cc1)C1=NN(c2ccccc2)C(=O)CC1
7%,O=C(Nc1ccc(OCC(F)(F)C(F)F)cc1)c1ccncc1
0%,CCOc1ccc(Cl)cc1CNCCNCC(C)O (configuration not stated)
3%,Cc1cc(C)cc(NC(=O)CCCc2nc(-c3ccco3)no2)c1
?,CCc1ccc(NC(=O)CN2C(=O)C(=O)c3ccccc32)cc1
2%,CCOc1ccc2nc(NCCNC(=O)C3CC3)c(C)cc2c1
-17%,Cc1ccc(-c2cc(-c3cccc(F)c3)n[nH]2)c(O)c1
-14%,CCS(=O)(=O)Nc1ccc(C(=O)OC)cc1
-6%,Cc1ccc(-n2nc(C)c(C(=O)O)n2)c(C)c1
4%,CC(C)c1ccc2[nH]c(O)c(N=NC(=O)c3cccc(S(=O)(=O)Nc4ccccc4Cl)c3)c2c1
-7%,Cc1ccc(NS(=O)(=O)c2ccc3c(c2)n(C)c(=O)c(=O)n3C)c(C)c1
1%,OC1C2COC(O2)[C@H](O)C1O (some centres not stated)
-22%,CC1CCN(S(=O)(=O)c2cn(CC(=O)Nc3cccc(C(F)(F)F)c3)c(=O)c3ccccc23)CC1
-2%,NS(=O)(=O)c1ccc(-c2ccc(C=O)o2)cc1
11%,Cn1c(=O)c2c(nc(-n3ccnc3)n2C)n(C)c1=O
